# S aureus helic = S. aureus DNA helicase inhibition | purified S. aureus helicase, fluorescence unwinding assay; about half of the hits fall short of the stated cut | inhibition, %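 (tested at about 80 µM)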 | 0.05% of 120,000 active | AID 485395;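 active means both duplicates at 50% or more, or one of them with a favoured structure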;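 further: 0% = mean of negative control wells and 100% = mean of positive control wells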
# MgrA DNA FP = alters Staphylococcus aureus MgrA binding to DNA; 0.13% of 84,000 active; fluorescence polarization; inhibition, %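 (about 10 µg/mL by stock and volumes)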; AID 602314;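 active means above 50% in either of two replicates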;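 further: 0% = protein plus DNA without compound and 100% = DNA alone without protein; higher means less MgrA bound to DNA so lower polarization; one replicate is shown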
# The depositor's hits bear a star; . = no result given.
SMILES,S aureus helic,MgrA DNA FP
CCC(CO)NC(=S)Nc1ccsc1C(=O)OC (stereo unspecified),.,0.6
COC(=O)c1ccc(NC(=O)c2ccccc2C)cc1OC,.,0.5
CCc1ccc(Nc2nc(N)nc(-c3oc4ccccc4c3C)n2)cc1,9.0,6.1
COc1ccc(C2=NC(C)(C)CO2)cc1OC,.,1.6
CCOC(=O)/C=C1\SCC(=O)N1CCSc1nncn1-c1ccccc1,-21.0,.
O=C(O)c1ccccc1SCC(=O)N1CCOCC1,-8.0,-5.5
Cn1c(-c2cccs2)n[nH]c1=S,.,4.4
O=C(Cc1csc(-c2ccccc2)n1)NC1CC1,18.0,.
COc1ccc(C(=O)CSc2nc(N)cc(=O)[nH]2)cc1OC,6.0,-2.8
NC(=O)c1cc2ccccc2oc1=O,11.0,-4.5
c1ccc(-n2cccc2)c(N2CCCCC2)c1,.,0.0
Cc1ccccc1S(=O)(=O)Cc1ccc(C(=O)N2CCc3ccccc32)o1,20.0,3.0
CCN1CCN(c2oc(COc3ccc(Cl)cc3)nc2C#N)CC1,-25.0,.
O=c1[nH]c(NC2CCN(S(=O)(=O)c3ccccc3C(F)(F)F)CC2)nc2c1CCCC2,1.0,-0.2
COCc1nnc(NC(=O)C2CC(=O)N(CCc3ccc(F)cc3)C2)s1 (stereo unspecified),9.0,8.8
O=C1/C(=C/c2c[nH]c3ccccc23)CSc2ccccc21,.,0.2
Oc1cc(CN2CCCCCC2)c(O)cc1CN1CCCCCC1,-9.0,.
Cc1c(Br)c(C(F)(F)F)nn1CC(=O)Nc1cc(C(F)(F)F)ccc1Cl,.,0.7
O=C(Cn1ncc2ccc(Cl)cc21)NCc1ccccc1,13.0,.
O=C(CC1CC2CCC1C2)NC(c1ccccc1)c1ccccc1 (stereo unspecified),6.0,0.5
CSc1ncnc2c1c(-c1ccccc1)cn2-c1ccc(F)cc1,9.0,.
N#Cc1ccc(CSc2ncn[nH]2)cc1,8.0,.
NS(=O)(=O)c1ccc(NC(=O)c2ccc3c(Cl)c4c(nc3c2)CCCC4)cc1,6.0,.
CCOC(=O)c1cccc2ncccc12,14.0,10.4
Nc1ccccc1SCc1cn2ccccc2n1,13.0,.
c1coc(-c2nc(-c3cccs3)no2)c1,8.0,9.9
CCN(CC)C(=O)NCc1ccc(OC)cc1,7.0,1.1
O=C(c1oc2ccccc2c1-n1cccc1)C1CC1,-9.0,.
O=C1c2ccccc2NC2(CCCCC2)N1Cc1ccco1,-15.0,0.9
O=C(O)CN(CC(=O)O)S(=O)(=O)c1ccccc1,6.0,.
O=C(CCCSc1nc2ccccc2[nH]1)N1CCN(CC(=O)N2CCCC2)CC1,-23.0,.
O=C1CC(C(=O)N2CCc3ccccc32)CN1c1ccccc1 (stereo unspecified),18.0,-0.9
COc1ccc(C(=O)CC(C#Cc2ccccc2)CC(=O)c2ccc(OC)cc2)cc1,3.0,1.9
CNC(=O)CNC(=O)Nc1ccc(Cl)c(Cl)c1,2.0,.
COc1ccc(C(=O)OC2CCCCC2CN(C)C)cc1 (stereo unspecified),-20.0,2.0
CSc1ccccc1NC1=NCCC1,-8.0,.
S=c1nc[nH]c2c1[nH]c1ccccc12,-1.0,2.9
CN(CCC#N)c1ccc(/C=C(\C#N)C(=O)C(C)(C)C)cc1,-69.0,.
COc1ccc(S(=O)(=O)N2CCN(c3cccc4[nH]ccc34)CC2)cc1OC,-16.0,.
O=c1[nH]c2c(c(=O)n1Cc1ccccc1)CCC2,9.0,.
Cc1nc(-c2ccc(N=Cc3cc(Br)ccc3O)cc2)cs1,2.0,.
c1ccc2oc(CCCc3nc4ccccc4o3)nc2c1,5.0,1.2
Cc1ccc(NC(=O)CSCc2ccc(C#N)cc2)cc1,.,-2.2
CCCC(=O)Nc1cccn(Cc2ccccc2Br)c1=O,-14.0,2.1
CN(CC(=O)NC1CCCC1)S(=O)(=O)c1cnc[nH]1,10.0,.
Cn1nc(-c2ccc(-c3ccn(S(C)(=O)=O)n3)s2)cc1C(F)(F)F,.,-1.5
CCC(NS(=O)(=O)c1ccc(OC)cc1)C(=O)NCc1ccccc1OC (stereo unspecified),5.0,0.0
O=C(Cc1cccs1)Nc1ccc(-c2nnc(-c3ccccc3)o2)cc1,12.0,0.4
CCc1[nH]c(C(=O)O)c(C)c1C(=O)OC,12.0,.
Nc1ncnc2c1ncn2CCN1CCCCC1,13.0,0.4
CC(=O)Nc1ccc(S(=O)(=O)N2CCC(NC(=O)Nc3cccc(F)c3)CC2)cc1,-5.0,-0.3
O=C(/C=C/c1ccco1)N1CCCSC1=Nc1ccccc1,-4.0,.
Nc1nc(SCc2cnc(-c3ccccc3)o2)nc2nc[nH]c12,5.0,.
CN(C)c1ccc(/C=N/c2nc3ccccc3o2)cc1,-47.0,15.9
O=C(CSc1nc2ccccc2[nH]1)Nc1ccccc1F,-14.0,.
CC(C)(C)c1nc(-c2ccc(C(F)(F)F)cc2)c2c(C(F)(F)F)cccc2n1,.,-1.1
Cc1onc(-c2ccccc2)c1C(=O)n1cccc1,.,2.8
O=C(Nc1ccccc1Cl)c1cc2c(s1)CCC2,-12.0,-0.7
O=C(c1cc2c(Cl)ccc3c2n1CCO3)N1CCC(N2CCCCC2)CC1,26.0,.
COc1ccccc1N(Cc1csc(-c2ccccc2)n1)S(=O)(=O)c1cccs1,10.0,.

# More structures
SMILES,S aureus helic,MgrA DNA FP
COc1ccc(-n2nnnc2-c2nc3ccccc3s2)cc1,-29.0,.
CCCN(CCC)C(=O)c1cnn(-c2ccc(C)c(C)c2)c1NC(C)=O,5.0,-1.2
N#Cc1ccc(-n2cnc3ccccc3c2=O)cc1C#N,9.0,0.5
Cc1ccsc1/C=C1/N=C(c2ccccc2)OC1=O,.,8.4
CCN(CC)C(=O)n1c(Cc2ccccc2)nc2ccccc21,-1.0,-0.1
COc1cccc(OC)c1C(=O)O/N=C(\N)c1cccc(C)c1,2.0,1.4
O=C1OC(COc2ccccc2)CN1c1ccccc1 (stereo unspecified),3.0,0.8
COC(=O)c1ccc(C2N=C(c3ccccc3C)NO2)cc1 (stereo unspecified),0.0,.
CCc1c(O)nc2ccccn2c1=O,.,-4.3
O=c1c(Cl)c(N2CCN(c3ccccc3)CC2)cnn1-c1ccccc1,4.0,1.4
CCOCCOC(=O)C1=C(C)NC2=C(C(=O)CC(c3ccc(OC)cc3)C2)C1c1ccc(OC)c(Br)c1 (stereo unspecified),.,2.3
CC1CCCN(S(=O)(=O)c2ccc3ccccc3c2)C1 (stereo unspecified),1.0,.

# Look-ups from the results shown:
# For S aureus helic, COc1ccc(-n2nnnc2-c2nc3ccccc3s2)cc1 is entered as -29.0
# For S aureus helic, CCN(CC)C(=O)n1c(Cc2ccccc2)nc2ccccc21 is entered as -1.0

# 3 entries from above in another layout.
SMILES | S aureus helic | MgrA DNA FP
O=C1OC(COc2ccccc2)CN1c1ccccc1 (stereo unspecified) | 3.0 | 0.8
O=c1c(Cl)c(N2CCN(c3ccccc3)CC2)cnn1-c1ccccc1 | 4.0 | 1.4
CCCN(CCC)C(=O)c1cnn(-c2ccc(C)c(C)c2)c1NC(C)=O | 5.0 | -1.2

# (next part)
SMILES,S aureus helic,MgrA DNA FP
O=C1CCSC(c2cccnc2)N1CCc1ccc(Cl)cc1 (stereo unspecified),.,-1.5
CN1C(=O)C[n+]2ccccc2C1C(=O)Nc1ccccc1 (stereo unspecified),12.0,-4.3
O=C(Cc1c(O)c2ccccc2oc1=O)c1cc2ccccc2o1,.,0.2
O=C1c2ccccc2C(=O)N1CCC12CC3CC(CC(C3)C1)C2,5.0,3.6
COc1cc(-c2nc3ccccc3c(=O)n2NC(=O)c2cc(Br)ccc2Cl)cc(OC)c1OC,.,-11.6
Cc1cccc(N(C)C(=O)/C=C/C(=O)O)c1,1.0,-2.5
COC(=O)C1C(c2ccccc2)C(C(=O)N2CCOCC2)C1c1ccccc1 (stereo unspecified),-7.0,2.0
Ic1ccccc1/C=N/n1cnnc1,4.0,-0.9
O=C1CC(Nc2ccc(Cl)cc2)C(=O)N1c1ccc(Cl)cc1 (stereo unspecified),.,3.4
Cc1ccc(NC(=O)C(NC(=O)c2ccccc2)C(C)C)cc1 (stereo unspecified),0.0,-0.2
c1ccc(-c2noc(C3CCC3)n2)nc1,.,-1.7
CC1CN(S(=O)(=O)c2cc(C(=O)N3CCNC(=O)C3)ccc2Cl)CC(C)O1 (stereo unspecified),32.0,.

# Brought forward from above: 2 entries, followed by the next part.
SMILES,S aureus helic,MgrA DNA FP
c1ccc(-c2noc(C3CCC3)n2)nc1,.,-1.7
CC1CN(S(=O)(=O)c2cc(C(=O)N3CCNC(=O)C3)ccc2Cl)CC(C)O1 (stereo unspecified),32.0,.
CN(C)c1ccc(C=Nc2ccc3c(c2)ncn3C(C)(C)C)cc1,-12.0,-1.5
O=C(c1ccc(COc2ccccc2)o1)N1CCCC(c2nc3ccccc3s2)C1 (stereo unspecified),-3.0,.
COc1ccc(C2NC(=O)c3[nH]nc(-c4cccc(OC)c4)c32)cc1 (stereo unspecified),2.0,1.2
CCN(CC)c1ccc(C(=O)N=c2sc3ccccc3n2C)cc1,1.0,.
FC(F)(F)c1ccc(Sc2nnc(-c3cccs3)n2CC2CCCO2)nc1 (stereo unspecified),-5.0,.
CC(=O)N1NC(c2ccccc2)CC1c1ccccc1 (stereo unspecified),8.0,-0.5
CCN(CC)c1ccc2cc(NC(=O)CCC(=O)O)c(=O)oc2c1,-78.0,.
Nc1ccccc1C(=O)N1CCNC(=O)C1,-27.0,.
CSCC(=O)NCc1ccc(CN2CCCC2)cc1,2.0,.
COc1ccc2c(c1)CCCN2,9.0,1.6
O=C1Nc2ccccc2N(O)N1c1ccc(S(=O)(=O)Nc2ccccn2)cc1,21.0,.
Cc1cc2cc(CNC(=O)C3CCCC3)ccc2n1C,16.0,.
Cc1onc(-c2ccccc2)c1C(=O)NCC1COc2ccccc2O1 (stereo unspecified),.,3.2
O=C(Oc1ccc(Br)cc1)c1ccco1,-5.0,-1.2
COCCNC(=O)CN1CCC(c2nc3ccccc3s2)CC1,-45.0,.
CC(C)(C)c1ccc(NC(=O)CSc2nnnn2-c2ccccc2)cc1,16.0,.
C1CCC(N2CCC(N3CCOCC3)CC2)CC1,0.0,.
CC(C)(C)C(=O)Cn1nnc(-c2ccncc2)n1,.,-7.2
CC1CCCC(NS(=O)(=O)c2ccc3[nH]c4c(c3c2)CCCC4)C1C (stereo unspecified),2.0,0.4
CCOC(=O)c1c(C)oc2ccc(OC(=O)c3ccco3)cc12,-14.0,.
c1ccc(-c2nnc(COc3ccc4ccccc4c3)o2)cc1,5.0,-0.3
CN1c2ccccc2Oc2nnc(N3CCN(Cc4ccccc4)CC3)cc21,8.0,0.0
NS(=O)(=O)c1ccc(CCNc2ncnc3c2cnn3-c2ccc(F)cc2)cc1,14.0,.
CC1=C(C(=O)OCc2ccc(C)cc2)C(c2cc3c(cc2Br)OCO3)CC(=O)N1 (stereo unspecified),6.0,1.0
CN(Cc1ccccc1)C(=O)C1CCCN1S(=O)(=O)c1cccc2nsnc12 (stereo unspecified),1.0,.
CN(c1ccc(Br)cc1)c1ncnc2c1nc1n2CCCCC1,-13.0,.
O=C(Nc1csc(Cc2c(Cl)cccc2Cl)n1)NN1CCOCC1,.,-2.2
O=C(O)c1ccccc1C1SCC(=O)N1NC(=S)Nc1ccccc1 (stereo unspecified),6.0,4.4
O=C(NCc1cccc(Cl)c1)c1ccc(-c2csnn2)cc1,.,-0.8
CSc1ncc(C#N)c2nc(-c3ccc(N(C)C)cc3)nn12,.,-0.8
CC(Sc1nc(N)cc(=O)[nH]1)C(=O)Nc1ccc(S(N)(=O)=O)cc1 (stereo unspecified),9.0,27.5
COc1ccc(NC(=O)CN2C(=O)CSCC2=O)cc1,2.0,.
O=C(COC(=O)c1cc(-c2ccccc2)nc2ccccc12)NC1CC1,2.0,-1.2
CCN(C(=O)c1cc2c(s1)-c1ccccc1SC2)c1ccccc1,15.0,-3.8
COc1ccc(-c2cc3c(S(=O)(=O)c4ccccc4)cc(NC(C)=O)cc3n2C)cc1,-16.0,.
Cn1c(CN2CCCC2)nc2cc(NS(=O)(=O)c3ccc(F)cc3)ccc21,16.0,.
CCOc1ccccc1N1CCN(C(=O)c2ccc3c(c2)S(=O)(=O)N=C2CCCCCN23)CC1,-1.0,.
CC1CCCC(C)N1C(=O)Cn1cc(C(=O)C2CC2)c2ccccc21 (stereo unspecified),11.0,.
COc1ccc2nc(-c3ccco3)c(-c3ccco3)nc2c1,5.0,25.8
FC(F)(F)c1cccc(-c2ccc3ccccc3n2)c1,.,2.5
c1ccc(C2C3=C(Nc4ncnn42)c2ccccc2CCC3)cc1 (stereo unspecified),-9.0,-0.9
CCC(C)NC(=O)c1ccc(NC(=O)C2=CSCCO2)cc1 (stereo unspecified),9.0,.
CCC(=O)Nc1cccc(NC(=O)c2cc3ccccc3o2)c1,-1.0,0.6
COc1ccc(CCCC(=O)O)cc1,-1.0,-0.3
CC1(C)CC(=O)c2sc(NC(=O)CCSc3ccccc3)nc2C1,-24.0,.
CCOC(=O)C1=NN(c2ccc(OC)cc2)C(c2ccccc2)CC1=O (stereo unspecified),19.0,-1.5
O=C(COc1ccc2ccc(=O)oc2c1)N1CCOCC1,-4.0,.
CCOC(=O)C1CCN(C(=O)c2nn(C)c(=O)c3ccccc23)CC1,5.0,.

# A second format for part of the listing above.
molecule	S aureus helic	MgrA DNA FP
CC1CCCC(C)N1C(=O)Cn1cc(C(=O)C2CC2)c2ccccc21 (stereo unspecified)	11.0	.
COc1ccc2nc(-c3ccco3)c(-c3ccco3)nc2c1	5.0	25.8
FC(F)(F)c1cccc(-c2ccc3ccccc3n2)c1	.	2.5

# Next section:
SMILES,S aureus helic,MgrA DNA FP
COc1cc(C2Nc3ccccc3-c3nnc(SC)nc3O2)cc(Br)c1O (stereo unspecified),.,0.4
CC(C)n1c(-c2nonc2N)nc2ccccc21,-16.0,.
COC(=O)c1ccc(C2C3C(=CC4CCC3N4C)C(C#N)=C(N)C2(C#N)C#N)cc1 (stereo unspecified),0.0,0.0
O=C(O)c1c[nH]c(=O)cc1O,.,-1.6
CCn1c(=O)n(CC)c2cc(S(=O)(=O)NC3CCCCC3)ccc21,11.0,2.9

# A portion of the library, so the mix of outcomes need not match the whole.
